# Compound activity as filed in PubChem.
# FGF22 binding = shifts melting point of recombinant human FGF22; Q9HCT0; recombinant FGF22 thermal shift, SYPRO orange fluorescence; percent of sucrose octasulfate shift, DMSO zero; calls only at 9.99 µM; actives 1.5% (n = 340,000);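 active means melting point raised past a set limit in the mean and every replicate; three in four hits are not shown here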
# Target sequence (Q9HCT0 whole entry, looked up): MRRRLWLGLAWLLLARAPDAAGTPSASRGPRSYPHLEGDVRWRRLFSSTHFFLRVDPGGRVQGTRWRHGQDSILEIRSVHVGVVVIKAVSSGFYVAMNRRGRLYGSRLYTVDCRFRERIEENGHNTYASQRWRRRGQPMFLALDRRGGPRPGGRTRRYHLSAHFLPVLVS
# UCH37 DUB inh = inhibitors of human deubiquitinating enzyme UCH37. Q9Y5K5. purified proteasome/UCH37, Ub-AMC cleavage fluorescence. inhibition, % (no concentration beside the values). actives 0.33% (n = 330,000). AID 588478;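 active means mean of two replicates above 20%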;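 further: 0% = compound-free wells with enzyme and 100% = wells lacking proteasome; stock transfer was 100 nL into about 20 µL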
#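 Material: human UCH37 enzyme supplied as purified proteasome complex. Measure: % inhibition of Ub-AMC cleavage fluorescence. Medium: pH 7.4 Tris-HCl (50 mM) with ovalbumin, ATP-MgCl2, DTT. Times: 30 min preincubation with enzyme, 25 min cleavage at room temperature. Detection: AMC fluorescence intensity at 355/460 nm.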
# Beta2AR agonist = human beta-2 adrenergic receptor agonism by FAP; response, % (concentration not given with the values); P07550; Am2.2-beta2AR cells, FAP receptor internalization, flow cytometry; reference of the scale not given here; actives 0.43% (n = 340,000);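 active means response above a set limit, near 3 SD of response in nonfluorescent compounds, cut at about 42% in these data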;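 further: stock transfer was 100 nL into about 11 µL; a reference agonist was the positive control; negative values mostly stem from fluorescent compounds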
# HNF4A DNA FP = change in binding of human HNF4 alpha to DNA; actives 0.3% (n = 360,000); activity change, % at 10 µM; P41235; HNF4a-FITC DNA binding, fluorescence polarization, 1 h; in the data active means activity change above about 30%, passing the limit was not always enough;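 further: controls were the assay level and a saturating level of protein; the project sought stronger binding though the title names inhibitors; some compounds called inactive have numbers as strong as hits; positive values seem to mean higher polarization but the record does not say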
# Target sequence (P41235 whole entry, looked up): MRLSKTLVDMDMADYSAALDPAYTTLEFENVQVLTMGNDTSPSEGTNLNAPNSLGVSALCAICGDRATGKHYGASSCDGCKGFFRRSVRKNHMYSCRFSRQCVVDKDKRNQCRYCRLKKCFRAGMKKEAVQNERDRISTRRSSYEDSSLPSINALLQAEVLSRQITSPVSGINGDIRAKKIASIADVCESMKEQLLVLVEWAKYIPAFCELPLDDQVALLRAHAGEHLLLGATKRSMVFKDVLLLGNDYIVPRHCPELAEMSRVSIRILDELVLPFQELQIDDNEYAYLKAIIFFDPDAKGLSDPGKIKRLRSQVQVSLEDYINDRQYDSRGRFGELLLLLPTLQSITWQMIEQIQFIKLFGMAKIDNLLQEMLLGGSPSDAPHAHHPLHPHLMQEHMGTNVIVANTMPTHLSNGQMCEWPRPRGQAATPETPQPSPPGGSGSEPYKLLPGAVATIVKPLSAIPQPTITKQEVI
# rRNA inh HTS = selective bacterial rRNA inhibition in E. coli | AID 720706 | GFP signal change (wild-type ribosome), % (concentration not given with the values) | actives 1.6% (n = 350,000) | E. coli WT GFP vs humanized-ribosome RFP mutants, fluorescence, 24 h; hits give low values; DMSO median 0, no signal -100;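 active means significant combined selectivity score with lowered wild-type GFP, culture density cut under 30%, mutant RFP and density less affected; inactive means any of these conditions unmet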; further: one replicate is shown; some compounds called inactive have numbers as strong as hits
# ALR H2O2 inh = inhibitors of human sulfhydryl oxidase ALR; P55789; purified ALR, DTT oxidation, H2O2 HRP-luminol luminescence; inhibition, % (concentration not given with the values); actives 3.8% (n = 290,000);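 active means mean and each replicate at 75% or more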;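 further: stock transfer was 7.5 nL into about 7.5 µL; 0% = neutral wells and 100% = wells with inactivated enzyme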
# Target sequence (P55789 whole entry, looked up): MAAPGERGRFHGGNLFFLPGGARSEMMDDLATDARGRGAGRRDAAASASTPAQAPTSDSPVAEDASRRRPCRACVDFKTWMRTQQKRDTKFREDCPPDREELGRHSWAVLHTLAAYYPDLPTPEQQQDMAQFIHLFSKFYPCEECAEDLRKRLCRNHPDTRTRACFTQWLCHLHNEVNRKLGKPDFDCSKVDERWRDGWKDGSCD
# E coli growth = E. coli growth inhibition. Escherichia coli growth, OD600, 23 h; hits give low values. actives 0.21% (n = 330,000). AID 1053175. OD600 absorbance (concentration not given with the values);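 active means OD600 absorbance below the run mean of sample wells minus 3.6 SD, in any replicate, cut at about 0.56 in these data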;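 further: stock transfer was 300 nL into about 60 µL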
# rRNA inh HTS OD600 = second read-out of rRNA inh HTS, no call of its own (marks repeat the call); OD600 change, %; measured here: OD600 growth;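 optical density of the mix in the first replicate; 0 = DMSO median and -100 = no signal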
# rRNA inh HTS RFP = second read-out of rRNA inh HTS, no call of its own (marks repeat the call); RFP signal change, %; measured here: RFP humanized mutant strains;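 first replicate; 0 = DMSO median and -100 = no signal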
# Numbers without * were called inactive; i = inactive; nt = not tested or not shown. Not all compounds are listed (hit frequency here may not be typical).
SMILES,FGF22 binding,UCH37 DUB inh,Beta2AR agonist,HNF4A DNA FP,rRNA inh HTS,rRNA inh HTS OD600,rRNA inh HTS RFP,ALR H2O2 inh,E coli growth
COc1ccc(NC(=O)CSc2nc(O)c(Cc3ccccc3)c(=O)[nH]2)cc1,nt,8.2,-3,6.5,nt,nt,nt,99*,0.66
O=C1/C(=N\O)Cc2ccccc21,nt,nt,-3,-0.8,nt,nt,nt,-1,nt
Cc1ccc(C(=O)NNC(=O)COC(=O)COc2ccccc2C#N)cc1,i,4.8,-8,3.3,3,0,0.5,nt,0.71
COc1ccc(-c2cnc[nH]2)cc1,i,3.8,5,1.6,6,0,0.5,-13,0.71
CC[C@]12c3[nH]c4ccc(Cl)cc4c3CCN1C(=O)[C@@H](CC(=O)NCCN1CCOCC1)C[C@@H]2C(=O)N1CCN(C(=O)C2CC2)CC1,i,4.9,2,-1.0,8,5,4.6,nt,0.69
COc1ccccc1COn1c(=O)c(-c2ccco2)[n+]([O-])c2ccccc21,i,-9.3,-6,4.1,5,-2,-1.6,nt,0.74
CCCCNC(=O)C1CCCN1C(=O)Nc1ccccc1 (stereo unspecified),nt,6.2,-4,1.3,nt,nt,nt,nt,0.71
Cc1ccc(CNC(=O)CCCn2c(=O)c3ccccc3n(CC(=O)NC3CCCC3)c2=O)cc1,nt,1.8,-1,3.2,nt,nt,nt,-10,0.79
CC(C)C(=O)Nc1cccc(N2CCN(CCCN3C(=O)C4CCCCN4C3=O)CC2)c1 (stereo unspecified),i,nt,7,0.4,5,2,0.6,nt,nt
COc1ccc(CCN2C(=O)NC(NC(=O)C(C)(C)C)(C(F)(F)F)C2=O)cc1OC (stereo unspecified),i,4.1,-2,0.8,5,14,-1.0,-10,0.7
COc1ccc(C(=O)NC2CC2)cc1OC1CCN(Cc2ccc(SC)cc2)CC1,i,0.9,-6,-2.9,1,4,2.4,-7,0.68
O=C(COC(=O)c1ccc(S(=O)(=O)Nc2ccccc2)cc1)NCc1ccco1,nt,0.1,11,-1.8,nt,nt,nt,5,0.71
O=C(Nc1ccccc1Cc1ccccc1)c1ccccc1F,i,5.0,-5,-2.2,-4,-11,-2.0,-7,0.71
C=CCNC(=O)NC(=O)COn1nnc2ccc(S(=O)(=O)N(C)C)cc21,nt,-0.5,36,-0.2,nt,nt,nt,3,0.69
COc1cc(C(C)=O)ccc1OCC(O)CN1CCN(S(=O)(=O)c2ccccc2)CC1 (stereo unspecified),nt,2.8,6,1.3,nt,nt,nt,-11,0.81
Cc1ccc(OCC(=O)N/N=C\c2cccn2C)c([N+](=O)[O-])c1,i,nt,-1,6.1,9,-1,3.6,1,nt
C#CCNc1nc(C)nc2c1nnn2Cc1ccccc1F,nt,0.8,-7,2.7,nt,nt,nt,-2,0.68
CC(=O)NCc1ccc(C(=O)O)cc1,i,2.8,5,-1.6,11,9,-3.6,2,0.7
c1ccc(COc2cncc(-c3cccnc3)c2)cc1,i,-0.6,-12,-0.4,-27,-37,7.2,-5,0.66
C[C@H](NC(=O)c1nc[nH]c1C(=O)N[C@@H](C)C(=O)OCc1ccccc1)C(=O)OCc1ccccc1,i,3.0,1,1.0,-3,-19,11,nt,nt
COCCn1c(-c2ccc(Cl)cc2Cl)nc2c(c(=O)c3ccccc3n2C)c1=O,i,2.0,-21,-2.2,1,-5,-2.2,nt,0.71
CC(C)c1ccc(OCC(=O)Nc2ccc3oc(=O)ccc3c2)cc1,i,-9.8,1,1.6,1,-2,3.1,1,0.67
COc1ccc(NC(=O)CN(C)C(=O)c2c(C)nn(Cc3ccccc3)c2C)cc1,i,1.4,-8,3.0,3,8,-0.5,-1,0.69
COc1ccc(C2=NN(C(=O)c3ccc(Cl)c([N+](=O)[O-])c3)C(c3ccccc3)C2)cc1 (stereo unspecified),i,1.7,8,2.7,1,2,-6.5,-14,0.73
COC(=O)c1cccn(CC(=O)c2ccc(Cl)cc2Cl)c1=O,i,1.6,6,-5.0,-1,-1,-1.3,-3,0.67
# (further entries)
SMILES,FGF22 binding,UCH37 DUB inh,Beta2AR agonist,HNF4A DNA FP,rRNA inh HTS,rRNA inh HTS OD600,rRNA inh HTS RFP,ALR H2O2 inh,E coli growth
Cc1ccccc1N1C(=O)C(Cc2ccc(F)cc2)S/C1=C(\C#N)C(N)=O (stereo unspecified),i,1.7,0,3.2,-31*,3.7*,-1.5*,0,0.63
COc1ccc(Cn2nnnc2C(c2ccc(N(C)C)cc2)N2CCC(C(N)=O)CC2)cc1 (stereo unspecified),i,0.7,5,-1.0,8,7,-2.0,7,0.72
O=C(NCC1CCCO1)c1cc([N+](=O)[O-])ccc1N1CCC(Cc2ccccc2)CC1 (stereo unspecified),i,5.4,21,1.9,-9,-20,-1.1,3,0.7
Cc1cc(NC(=O)C2(C)CCN2C(C)C)c2ccccc2n1 (stereo unspecified),i,nt,nt,-0.8,-2,-4,-1.7,nt,nt
CCC1(c2ccccc2)ON(c2c(Br)cccc2Br)C1=O (stereo unspecified),i,nt,1,-1.7,9,12,-1.4,-2,nt
CC1CCCC(NC(=O)CCCCCn2c(=S)[nH]c3ccsc3c2=O)C1C (stereo unspecified),i,nt,nt,1.0,5,4,-2.1,nt,nt
CC(=O)NC1CC(C)(C)N(OC(C)=O)C(C)(C)C1,nt,6.4,1,3.0,nt,nt,nt,nt,0.69
Nc1n[nH]c(=S)n1-c1ccc(Cl)cc1,i,0.9,-13,-1.7,2,12,-3.5,67,0.67
OC(COc1ccccc1)CN1CCN(C(c2ccccc2)c2ccccc2)CC1 (stereo unspecified),i,2.6,6,-3.0,-44,-70,-19,-3,0.65
Cc1cccc(N(C)C(=O)CN(C)S(=O)(=O)c2ccc3c(c2)c(=O)n(C)c(=O)n3C)c1,i,3.7,-4,0.2,10,7,2.8,0,0.71
CC1(C)C[C@@H]2C[C@@](C)(CN2C(=O)c2ccccc2)C1,i,4.3,0,1.0,nt,nt,nt,-8,0.6
COc1ccc(NS(=O)(=O)c2ccc(NC(C)=O)cc2)cc1OC,nt,1.2,-1,-1.0,nt,nt,nt,-19,0.72
CC(C(=O)NC1CCCCC1)N1C(=O)c2cccc3cccc1c23 (stereo unspecified),i,-14,2,1.9,9,15,4.6,-23,0.64
N#CCC1c2ccccc2CCN1C(=O)Nc1ccc(Cl)cc1 (stereo unspecified),nt,3.1,-4,1.8,nt,nt,nt,-7,0.74
O=C(Cc1cccs1)Nc1nnc(CCc2ccccc2)s1,nt,1.2,-2,2.0,nt,nt,nt,nt,0.68
CC(C)C(NS(=O)(=O)c1c(Cl)cccc1Cl)C(=O)OCC(=O)c1c[nH]c2ccccc12 (stereo unspecified),nt,4.1,11,-1.2,nt,nt,nt,-10,0.68
Cc1sc2ncnc(NCC(C)(C)N3CCOCC3)c2c1C,nt,-0.4,4,-1.5,nt,nt,nt,-12,0.74
CCOc1ccc(S(=O)(=O)NC(C)C(=O)NCc2ccccn2)cc1 (stereo unspecified),i,1.9,6,1.3,10,10,0.9,-3,0.68
CCCCN(CC)C(=O)Cc1cn(C)c2ccccc12,nt,0.3,-3,2.8,nt,nt,nt,-1,0.71
CC1CCC(NC(=O)c2nn(C)c3c2CS(=O)(=O)c2ccccc2-3)CC1 (stereo unspecified),i,1.3,1,-3.1,-7,-19,3.1,6,0.69
O=C1NC(=O)/C(=C\c2cn(CC(=O)N3CCOCC3)c3ccccc23)S1,i,10,6,2.5,2,4,-4.6,nt,0.7
Cc1ccc(CNc2cc(C(=O)O)ccc2Cl)s1,i,5.3,3,-0.1,-33*,-26*,-5.1*,-27,0.61
COc1cccc(CNC(=O)Cc2csc(NC(=O)Nc3ccccc3OC)n2)c1,i,5.1,8,6.8,-26,-30,-3.6,nt,0.69
c1ccc2[nH]c(N3CCOCC3)nc2c1,nt,-4.1,-7,2.2,nt,nt,nt,16,0.76
COc1cccc(CNc2ccc3c(c2)CCC3)c1,nt,-3.6,13,1.1,nt,nt,nt,24,0.64

# 3 structures out of the list, sorted by heavy-atom count, rising.
SMILES,FGF22 binding,UCH37 DUB inh,Beta2AR agonist,HNF4A DNA FP,rRNA inh HTS,rRNA inh HTS OD600,rRNA inh HTS RFP,ALR H2O2 inh,E coli growth
Cc1ccc(CNc2cc(C(=O)O)ccc2Cl)s1,i,5.3,3,-0.1,-33*,-26*,-5.1*,-27,0.61
N#CCC1c2ccccc2CCN1C(=O)Nc1ccc(Cl)cc1 (stereo unspecified),nt,3.1,-4,1.8,nt,nt,nt,-7,0.74
CC(C(=O)NC1CCCCC1)N1C(=O)c2cccc3cccc1c23 (stereo unspecified),i,-14,2,1.9,9,15,4.6,-23,0.64

# New compounds follow:
SMILES,FGF22 binding,UCH37 DUB inh,Beta2AR agonist,HNF4A DNA FP,rRNA inh HTS,rRNA inh HTS OD600,rRNA inh HTS RFP,ALR H2O2 inh,E coli growth
O=C(c1cc(Cl)nc2ccccc12)N1CCN(S(=O)(=O)c2cccc(C(F)(F)F)c2)CC1,i,-1.7,3,1.4,-10,-12,1.1,-4,0.67
CN1CCN(CCc2nc3cc(NC(=O)COc4ccc(Cl)cc4)ccc3n2C)CC1,i,8.1,47*,0.4,-6,-5,0.8,-7,0.7
CC(C)C1NCCc2c1sc1ccccc21 (stereo unspecified),i,0.5,14,-1.7,nt,nt,nt,-6,0.64
CCN1CCN(CC(=O)Nc2ccccc2)C(=O)C1=O,i,5.5,5,1.3,4,6,-0.9,-5,0.73
Fc1cccc(F)c1-n1c(CN2CCCC2)csc1=S,i,-0.3,4,-0.4,-9,-7,-0.7,-2,0.68
Cc1nc2oc3ccc(Cl)cc3c(=O)c2cc1C(=O)O,i,-27,7,19,0,-9,-3.1,-1,0.69
COc1ccc(NC(=O)CN2C(=O)CC(C)S(=O)(=O)c3ccccc32)cc1 (stereo unspecified),i,nt,0,-1.3,11,11,0.8,-24,nt
Cc1cc(C)c(NC(=S)NC(=O)c2ccccc2)cc1C,i,nt,nt,-3.1,0,0,-0.6,nt,nt
CCOC(=O)c1cc(CC)sc1NC(=O)c1ccc2c(c1)OCCO2,nt,-163,3,1.8,nt,nt,nt,9,0.69
CC(=O)c1c(-c2ccccc2)[nH]c2ccccc12,i,2.5,-3,0.2,0,-4,-4.2,-9,0.65
Cn1c(SCC(=O)Nc2cc(Cl)cc(Cl)c2)nnc1-c1ccc2nonc2c1,i,-22,-5,-1.0,7,9,-1.6,4,0.65
CCN(CC)C(=O)c1ccc(C)c(Br)c1,nt,3.6,1,2.3,nt,nt,nt,-6,0.69
OCCc1c[nH]c2ccc(OCc3ccccc3)cc12,i,0.1,-4,14,-5,2,1.0,29,0.69
CC1CN(S(=O)(=O)c2cccc(C(=O)Nc3ccccc3N3CCCCC3)c2)CC(C)O1 (stereo unspecified),i,3.5,37,0.2,1,1,3.3,22,0.7
CCC(C)Nc1nc(-c2ccc3c(c2)NC(=O)CO3)cs1 (stereo unspecified),nt,-2.1,-3,-8.2,nt,nt,nt,98*,0.69
COc1ccc(OC)c(S(=O)(=O)N(C)CC(=O)N2CCN(c3ccccc3)CC2)c1,nt,0.2,-4,0.4,-3,-5,1.3,24,0.73
O=c1[nH]n2c(=O)c3c([nH]c2c1N=Nc1ccccc1)CCC3,nt,22*,3,-4.9,nt,nt,nt,30,0.63
Cc1n[nH]c(=O)nc1NCc1ccccc1,nt,0.9,3,1.2,nt,nt,nt,-4,0.67
Cc1c(NC(=O)c2ccc(CC(C)C)o2)c(=O)n(-c2ccccc2)n1C,i,1.3,-6,4.2,12,8,0.0,4,0.67
CS(=O)(=O)N(CC(N)=O)c1ccc(F)c(Cl)c1,nt,1.1,-1,1.0,nt,nt,nt,4,0.77
O=C(Nc1ccccc1N1CCOCC1)c1cccc(F)c1,nt,2.0,-3,-3.5,8,10,0.2,96*,0.67
COc1ccc(NCc2nnc(SCC(=O)N3CCCc4ccccc43)n2C)cc1,nt,3.0,41,3.9,nt,nt,nt,8,0.73
